From PubChem BioAssay
gsp antag: antagonizes gsp, the McCune-Albright syndrome mutation; gsp-mutant cells, cAMP HTRF, 30 min; control for the full effect not named in the record; Potency, µM (highest dose often 76.9 µM), without a hit: at the top dose activity change, negative = inhibition, hits mostly inhibitors; actives 0.4% (n = 340,000); AID 624288; active = falling curve of any shape with a large fitted effect; inconclusive = falling curve, mostly with a smaller effect; inactive = flat or rising curve; cell line not stated here;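 note: intracellular cAMP measured with PDE inhibitor Ro 20-1724 present during compound exposure; potency is the fitted concentration of half-maximal effect; % is set by controls: 0 for no effect and ±100 for the full control effect; nearly all actives have a fitted effect of over 65% in size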
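Measurement of cellular cAMP by homogeneous time-resolved fluorescence following a 30 min compound exposure at 37C. The PDE inhibitor […] was present throughout; the assay buffer was DPBS with 0.05% BSA and 0.005% Tween 20.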
ClpP mod: qHTS Assay for Activators of ClpP; Potency, µM (titrated, usually from 57.5 µM), for the others: at the highest dose activity change, negative = active; ATP-dependent Clp protease proteolytic subunit (Bacillus subtilis (strain 168)), P80244; purified B. subtilis ClpP, FRET peptide cleavage, 20 min; actives 1.9% (n = 340,000); active = well fitted falling curve with a large enough effect; inconclusive = small, poorly fitted or top-dose-only effect; inactive = no such curve, though single readings can be large or run the other way; note: potency is the fitted concentration of half-maximal effect; the source files actives as falling curves though it sought activators and does not explain the sign; nearly all actives have a fitted effect of over 65% in size; many hits overshoot -100%
Target sequence (P80244 whole entry, looked up): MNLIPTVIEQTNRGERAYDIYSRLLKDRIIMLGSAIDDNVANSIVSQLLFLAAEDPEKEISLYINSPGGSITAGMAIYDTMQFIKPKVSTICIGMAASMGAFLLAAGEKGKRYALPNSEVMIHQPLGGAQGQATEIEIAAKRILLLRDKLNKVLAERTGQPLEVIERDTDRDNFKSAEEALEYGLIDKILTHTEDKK
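FRET quenching reversal measured ClpP activation: 10 microg/mL B. subtilis ClpP at pH 8 with the FRET-FV decapeptide, read at 430 nm after 320 nm excitation. The 20-min minus 0-min signal was scaled between DMSO/no-enzyme wells and ADEP (5.8 microM final).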
Sfp inh: Sfp phosphopantetheinyl transferase inhibition; actives 3.5% (n = 310,000); AID 1490; Q9F4F7; Biochemical Sfp PPTase activity, qHTS; Potency, µM, without a hit: max response, negative = inhibition, actives largely listed as inhibitors; active = well fitted inhibition curve with a large enough effect; inconclusive = small, poorly fitted or top-dose-only effect, or another doubt; inactive = no such curve, though single readings can be large or run the other way;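 note: the enzyme is Sfp with the accession as filed and its product quenches rhodamine fluorescence; potency is the fitted concentration of half-maximal effect; 0% = enzyme reaction without inhibitor and -100% = no enzyme wells; top concentration of the series not given in the record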
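Reaction rates are the 30-min fluorescence difference (ex 525, em 598 nm) in wells containing 15 nM Sfp, 5 uM rhodamine-CoA and 12.5 uM BHQ-2-YbbR at pH 7.6 with 10 mM MgCl2.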
Menin-MLL FL inh: menin-MLL binding inhibition, fluorescein peptide; Fluorescence polarization, fluorescein-MLL peptide displacement from menin; FP activity change, % at 61.4 µM; 290,000 tested, under 10 active; AID 1766; inconclusive = falling polarisation curve, or a change in total fluorescence; inactive = total fluorescence flat and polarisation flat or rising; no compound was filed as active; the % refers to the polarisation; negative = inhibition;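 note: % of control where 0% means no effect; inhibitors lower the polarisation; unlabelled MLL peptide was the positive control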
CtBP-E1A inh: CtBP/E1A binding inhibition; AlphaScreen GST-E1A/His-CtBP binding, 1536-well; hits give low values; control for the full effect not named in the record; activity change, % (concentration not given with the values); actives 0.49% (n = 340,000); in the data active means activity change below about -65%; inconclusive means about -30% to -65%; inactive means above about -30%; note: % is set by controls: 0 for no effect and ±100 for the full control effect
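Homogeneous bead-based format: GST-tagged E1A captured on glutathione donor beads, His-tagged CtBP on nickel acceptor beads; compounds precede bead addition by 2 h at 37 °C.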
TRPV1 PAM: human TRPV1 potentiation. Q8NER1. TRPV1-expressing cells, Fluo-8 calcium influx, capsaicin EC20 potentiation; host cell line not named in the record; control for the full effect not named in the record. potentiation, % at 8.33 µM. actives 0.02% (n = 320,000). AID 540277; active means potentiation above 80%; inconclusive means 30% to 80%; inactive means below 30%; note: 0% is about no effect
Target sequence (Q8NER1 whole entry, looked up): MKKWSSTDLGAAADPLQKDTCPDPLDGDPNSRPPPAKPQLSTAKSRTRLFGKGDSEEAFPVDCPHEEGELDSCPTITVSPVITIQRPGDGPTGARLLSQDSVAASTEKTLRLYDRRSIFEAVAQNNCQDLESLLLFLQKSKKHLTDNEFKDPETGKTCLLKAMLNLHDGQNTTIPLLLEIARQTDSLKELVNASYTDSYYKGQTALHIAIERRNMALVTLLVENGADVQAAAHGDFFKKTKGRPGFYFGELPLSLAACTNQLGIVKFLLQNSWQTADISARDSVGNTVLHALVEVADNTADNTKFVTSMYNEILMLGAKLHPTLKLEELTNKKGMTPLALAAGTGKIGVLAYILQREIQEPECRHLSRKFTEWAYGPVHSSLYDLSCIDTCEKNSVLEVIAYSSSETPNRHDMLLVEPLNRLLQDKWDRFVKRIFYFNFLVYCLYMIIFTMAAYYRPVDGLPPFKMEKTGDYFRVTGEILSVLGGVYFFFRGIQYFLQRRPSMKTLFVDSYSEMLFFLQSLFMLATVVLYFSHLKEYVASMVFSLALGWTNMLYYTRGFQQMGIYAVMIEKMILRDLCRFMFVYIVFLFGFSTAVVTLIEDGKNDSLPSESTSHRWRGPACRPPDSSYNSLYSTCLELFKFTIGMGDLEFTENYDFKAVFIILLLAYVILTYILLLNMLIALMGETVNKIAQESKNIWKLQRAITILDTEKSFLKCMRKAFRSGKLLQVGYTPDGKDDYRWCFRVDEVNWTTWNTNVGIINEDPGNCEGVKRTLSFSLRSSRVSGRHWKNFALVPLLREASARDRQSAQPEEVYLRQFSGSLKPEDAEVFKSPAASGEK
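Cells expressing TRPV1 were dye-loaded with Fluo-8 and read kinetically: 10 s baseline, 3 min after compound (agonist portion), then 2 min after EC20 capsaicin (allosteric enhancer portion). Calcium-bound dye fluorescence at 480/520 nm.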
gsp ag: agonists of gsp mutant (McCune-Albright syndrome); gsp mutant cells, cAMP HTRF, 30 min; control for the full effect not named in the record; Potency, µM (doses to about 76.9 µM), for inactives: at the highest dose activation (cAMP increase), hits mostly activators; actives 0.13% (n = 340,000); AID 624287; active = well fitted activation curve with a large enough effect; inconclusive = small, poorly fitted or top-dose-only effect, or another doubt; inactive = no such curve, though single readings can be large or run the other way; cell line not stated here;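 note: phosphodiesterase inhibitor Ro 20-1724 added with compounds to block cAMP breakdown; potency is the fitted concentration of half-maximal effect; nearly all actives have a fitted effect of over 60% in size; about a fifth of the inactives were tested at one dose only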
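Cells in DMEM/10% FBS with G418 were pretreated with compounds in DMSO plus […] (300 uM stock) for 30 min at 37C. cAMP was measured by HTRF (cAMP-d2 plus anti-cAMP antibody-K) after 30 min at room temperature.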
Numbers without * were called inactive; u = inconclusive; x = no result given; & = joins results of further samples; [ ] = another dose, or the depositor's remark.

Start of the listing, in advance, 2 compounds:
SMILES,Sfp inh,gsp ag,Menin-MLL FL inh,CtBP-E1A inh,ClpP mod,gsp antag,TRPV1 PAM
O=C(CC1COc2ccccc2O1)NCc1ccccc1 (stereo not drawn),17%,-23%,4.1,0,-0.2%,6%,-2
CC(C)C(c1nnnn1C1CCCCC1)N1CCc2ccccc21 (stereo not drawn),1%,-4%,7.2,-8,-3.5%,-16%,-3

The whole of this part, repeating the preview:
SMILES,Sfp inh,gsp ag,Menin-MLL FL inh,CtBP-E1A inh,ClpP mod,gsp antag,TRPV1 PAM
O=C(CC1COc2ccccc2O1)NCc1ccccc1 (stereo not drawn),17%,-23%,4.1,0,-0.2%,6%,-2
CC(C)C(c1nnnn1C1CCCCC1)N1CCc2ccccc21 (stereo not drawn),1%,-4%,7.2,-8,-3.5%,-16%,-3
O=c1ccc2c(ccc3ncccc32)o1,x,1%,x,1,3.7%,x,x
CSc1ccccc1COC(=O)Nc1ccccc1C,23%,-61%[inhibitor],0.8,5,x,-8%,-8
COC(=O)c1c(C)[nH]c(O)c1C=Nc1ccc(Oc2ccccc2)cc1,-2%,-14%[15.4 µM],u,-19,x,-15%,0
COc1ccc(C(=O)OCC(=O)Nc2cc(C)c(C)cc2[N+](=O)[O-])cc1,-31%,-6%,8.5,x,2.7%,79%[activator],-2
COc1ccc(-c2[nH]ncc2/C=N/NC(=O)c2cc(Br)ccc2O)c(OC)c1,17%,-5%[15.4 µM],3.0,-15,-28%,1%,1
Cc1ccc(Cl)cc1N1CCN(Cc2nc3c(c(=O)[nH]c(=O)n3C)n2CCc2ccccc2)CC1,-2%,0%,3.1,-1,-1.7%,6%,-4
COc1ccn(C2CCCCO2)c(=O)n1 (stereo not drawn),x,-34%,x,8,x,8%,x
COc1ccc(C(C(=O)Nc2ccc(F)cc2)N(C(=O)Cn2nnc3ccccc32)C2CC2)cc1 (stereo not drawn),3%,-5%,6.9,6,-1.1%,0%,x
O=C(CSc1ccccc1F)NCC(c1ccco1)N1CCCCC1 (stereo not drawn),x,14%,x,5,0.5%,x,x
Cn1c(CSCc2ccc(Cl)cc2)nnc1SCC(=O)Nc1nccs1,15%,u,5.8,5,-1.7%,-10%,10
CN(Cc1nc2ccccc2c(=O)[nH]1)CC(O)COCc1ccco1 (stereo not drawn),u,19%,-0.7,-2,0.2%,9%,-3
Cc1ccc(C)n1-c1ccc(C#N)cn1,-2%,1%[15.4 µM],-1.5,-12,-1.8%,6%,16
O=C(Nc1cccc2nsnc12)c1ccc(F)cc1,6%,-2%,-4.9,21,0.9%,-8%[15.4 µM],-4
COc1ccc(S(=O)(=O)N(CC(=O)NCc2ccncc2)c2ccc(C)cc2)cc1Br,-8%,24%,0.7,-6,x,-26%,-15
CCN(CC(=O)Nc1c(F)cccc1F)C(=O)CNC(=O)COc1ccccc1,x,29%,x,10,-0.1%,8%,1
Cc1nc2c(cc1NC(=O)C(C)(C)C)nc(C)n2Cc1ccccc1,8%,0%,4.8,10,-1.9%,-9%,-7
CCCCN(C(=O)c1cccc(S(=O)(=O)N2CCCCC2)c1)C1CCS(=O)(=O)C1 (stereo not drawn),12%,u,-4.3,4,0.9%&-5.1%,-3%,8
COc1ccc(S(=O)(=O)N(C)CC(=O)NCc2cccnc2)cc1,8%,u,1.3,-2,-2.6%,8%,26
CCOC(=O)C(NCc1ccc(F)cc1)(NC(=O)c1ccccc1)C(F)(F)F (stereo not drawn),-12%,0%,9.5,-1,-3.7%,-3%,-43
COCCN(C(=S)Nc1ccc(C)cc1C)C(C)c1ccco1 (stereo not drawn),7%,u,-5.0,8,x,5%,-5
O=C(OCCCN1CCOCC1)c1ccc(O)c(O)c1,u,5%,-0.8,-7,-4.8%,4%,-8
Cc1noc(C)c1NC(=O)N(C)C[C@H]1OCc2cn(nn2)CCCC(=O)N([C@@H](C)CO)C[C@@H]1C,x,-98%[inhibitor],x,0,-1.9%,x,x
CC(C)NC(=O)Cn1cnc2c1c(=O)n(C)c(=O)n2C,12%,-26%,1.3,-3,-2.0%,2%,0
COc1ccc(OC)c(-n2c(-c3cc(-c4ccco4)[nH]n3)n[nH]c2=S)c1,17%,18%[15.4 µM],1.5,-1,1.2%,-15%,-2
C=CCN1C(=O)C(CC(=O)Nc2ccccc2)S/C1=N/c1nccs1 (stereo not drawn),7%,14%,4.6,-14,x,2%,-20
Fc1ccc(Cn2nnc(-c3ccc(CN4CCOCC4)cc3)n2)cc1,19%,-73%[inhibitor],1.2,-8,-3.1%,-3%,-1
Cc1[nH]c2ccccc2c1SCC(=O)NNC(=O)Nc1ccc(OC(F)(F)F)cc1,9%,16%[15.4 µM],4.4,-3,x,-4%,8
Cc1cc(C)c2nc(SC(C)C(=O)NCC(=O)Nc3ccc(F)c(F)c3F)cc(C)c2c1 (stereo not drawn),-5%,9%[15.4 µM],-0.9,-1,-1.3%,-5%,2
Cc1nc2ccccn2c(=O)c1NC(=O)c1cccc2ccccc12,x,9%[15.4 µM],x,2,0.5%,14%,-7
O=C(NCc1ccccc1)Nc1cccn(Cc2c(F)cccc2Cl)c1=O,-6%,-15%,9.3,-7,u,2%,-12
O=C(CCCCCCCC(=O)N1CCCCC1)N1CCCCC1,x,-9%,x,10,1.7%,6%,x
Cc1c(NC(=O)CCCCCN2C(=O)C3C4C=CC(C4)C3C2=O)c(=O)n(-c2ccccc2)n1C (stereo not drawn),11%,19%,1.4,5,-0.2%,7%,26
Cc1c(C(=O)N2CCN(S(=O)(=O)c3cccs3)CC2)oc2ccc(F)cc12,x,-1%,x,x,0.8%,-14%,x
COc1ccc2cc(CCNC(=O)CCc3ccccc3)c(=O)[nH]c2c1,1%,20%,x,x,-8.0%,0%,-11
O=c1c(N=Nc2ccccc2)c[nH]n1-c1ccccc1,x,0%,x,u,0.4%,x,x
COc1ccc(/C=C(\NC(=O)c2ccccc2)C(=O)N2CCN(C)CC2)cc1,7%,-4%[15.4 µM],0.6,-4,-2.1%,8%,3
COc1ccc(C)cc1S(=O)(=O)Nc1cc2c3c(c1)C(C)C(=O)N3CCC2 (stereo not drawn),x,-22%,x,4,0.8%,-2%,13
Cc1c(NC(=O)C(C)N(c2ccccc2)S(C)(=O)=O)c(=O)n(-c2ccccc2)n1C (stereo not drawn),13%,16%[15.4 µM],-1.6,-5,x,x,1

4 of the compounds above, with values under each structure.
Under each structure: Sfp inh | gsp ag | Menin-MLL FL inh | CtBP-E1A inh | ClpP mod | gsp antag | TRPV1 PAM
Cc1cc(C)c2nc(SC(C)C(=O)NCC(=O)Nc3ccc(F)c(F)c3F)cc(C)c2c1 (stereo not drawn)
 : -5% | 9%[15.4 µM] | -0.9 | -1 | -1.3% | -5% | 2
Cc1nc2ccccn2c(=O)c1NC(=O)c1cccc2ccccc12
 : x | 9%[15.4 µM] | x | 2 | 0.5% | 14% | -7
O=C(NCc1ccccc1)Nc1cccn(Cc2c(F)cccc2Cl)c1=O
 : -6% | -15% | 9.3 | -7 | u | 2% | -12
O=C(CCCCCCCC(=O)N1CCCCC1)N1CCCCC1
 : x | -9% | x | 10 | 1.7% | 6% | x

The listing continues:
SMILES,Sfp inh,gsp ag,Menin-MLL FL inh,CtBP-E1A inh,ClpP mod,gsp antag,TRPV1 PAM
Cc1nc2nc(SCC(=O)c3ccc([N+](=O)[O-])cc3)[nH]c2cc1Br,-3%,0%,6.5,4,-10%,-17%,-7
O=C(CNC(=O)c1cccs1)Nc1ccc(N2CCOCC2)cc1,x,18%,x,3,-1.8%,-1%,8
Cc1ccc2cc(C#N)c(N3CCCN(S(=O)(=O)c4ccccc4)CC3)nc2c1C,x,31%,x,55,u,1%,x
Cn1cc(Br)c(C(=O)NNC(=O)c2ccc(Br)cc2)n1,5%,-22%,3.2,9,-1.7%,13%,-4
COc1ccc(CCNC(=O)C(=O)NCC2OCCN2C(=O)c2ccc(Cl)cc2)cc1OC (stereo not drawn),-10%,-4%,x,3,-2.0%,-7%,-16
COc1ccc(Cn2ccnc2SCC(=O)Nc2ccccc2F)cc1,1%,-32%,x,-1,0.0%,1%,11
Cc1cc(C)c2nc(NCc3ccccc3O)sc2c1,8%,-1%,9.6,1,0.2%,4%,-13
O=C(Cn1ccc2ccccc2c1=O)NCCC(=O)N1CCN(c2cccc(Cl)c2)CC1,-14%,9%,-4.0,-3,-13%,-17%,2
O=C(Nc1c(Cl)cc2c(c1Cl)Cc1cc([N+](=O)[O-])ccc1-2)C(Cl)Cl,x,33%,x,-8,0.9%,u,x
Cc1ccc(C(=O)NNc2nc3ccccc3nc2C(F)(F)F)cc1,13%,0%,3.0,4,-1.1%,19%,-8
CCN(CC(=O)NCc1ccc(F)cc1)C(=O)c1ccc(COc2ccccc2)cc1,-3%,-30%[15.4 µM],-1.0,-4,x,-13%,13
C[C@H](CO)N1C[C@H](C)[C@@H](CN(C)Cc2ccc3c(c2)OCO3)Oc2ccc(NC(=O)Cn3cnnn3)cc2C1=O,x,x,x,6,-0.8%,8%,x
COc1cc(/C=C2\C(=N)N3N=C(C)SC3=NC2=O)cc(Cl)c1OCCOc1ccc(NC(C)=O)cc1,-8%,-38%[inhibitor],u,-10,0.0%,u,-3
CCCC[n+]1c(C)sc2cc(OC)ccc21,6.3µM*,8%,0.2,x,-3.7%,8%,-16
